# D2 PAM = human D2 receptor positive allosteric modulation; DiscoveRx D2 beta-arrestin cells, luminescence, 90 min; 100% = 57 uM dopamine signal; 0.23% of 360,000 active; P14416; potentiation, % (test concentration not listed); active = potentiation of 50% or more; inconclusive = 30% to 50%; inactive = 30% or less;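 further: compound concentration not given in the record; tested on top of an EC20 dose of dopamine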
#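 D2 cells co-treated with compound plus 50 nM dopamine (EC20) for 90 min at 37 deg C to detect potentiation. Beta-arrestin recruitment was read as enzyme-fragment luminescence after 1 h at ambient temperature. Full response was set by 57 uM dopamine.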
# Six1-Eya2 blk = Six1/Eya2 interaction inhibition; Q15475+O00167; AlphaScreen GST-Six1/His-Eya2 binding, biochemical; active compounds read low; control for the full effect not named in the record; activity change, % (no concentration beside the values); 0.56% of 360,000 active; AID 651725; in the data active = activity change below about -65%; inconclusive = about -30% to -65%; inactive = above about -30%; further: on the % scale 0 is the no-effect control and ±100 the full control effect
# Target sequence (O00167 whole entry, looked up): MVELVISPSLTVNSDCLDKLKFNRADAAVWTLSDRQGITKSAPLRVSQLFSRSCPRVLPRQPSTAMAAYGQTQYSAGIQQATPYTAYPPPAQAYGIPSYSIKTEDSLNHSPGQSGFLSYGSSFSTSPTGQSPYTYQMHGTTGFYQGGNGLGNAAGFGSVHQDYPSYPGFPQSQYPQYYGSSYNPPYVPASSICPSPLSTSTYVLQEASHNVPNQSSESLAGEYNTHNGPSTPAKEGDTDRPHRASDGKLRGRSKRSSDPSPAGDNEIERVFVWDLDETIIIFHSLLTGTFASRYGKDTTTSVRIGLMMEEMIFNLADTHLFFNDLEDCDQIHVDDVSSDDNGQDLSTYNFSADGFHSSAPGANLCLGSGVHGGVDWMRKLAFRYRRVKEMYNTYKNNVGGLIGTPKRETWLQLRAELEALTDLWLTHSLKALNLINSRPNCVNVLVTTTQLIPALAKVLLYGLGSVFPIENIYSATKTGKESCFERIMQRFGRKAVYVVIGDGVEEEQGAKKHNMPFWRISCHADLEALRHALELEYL
# Target sequence (Q15475 whole entry, looked up): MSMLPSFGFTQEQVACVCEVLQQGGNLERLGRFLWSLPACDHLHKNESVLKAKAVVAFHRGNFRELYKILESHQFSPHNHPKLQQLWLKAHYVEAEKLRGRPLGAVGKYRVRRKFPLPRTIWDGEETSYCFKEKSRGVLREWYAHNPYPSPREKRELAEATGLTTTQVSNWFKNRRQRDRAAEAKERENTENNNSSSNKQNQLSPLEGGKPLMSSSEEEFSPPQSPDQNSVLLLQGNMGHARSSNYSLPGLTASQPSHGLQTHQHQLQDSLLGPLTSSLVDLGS
#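 Six1/Eya2 binding was read as AlphaScreen signal after compounds were pinned into GST-Six1 plus His-tagged Eya2 (5X stock 250/500 nM) in pH 8.0 Tris/NaCl/TCEP buffer, beads added, then incubated 1 h, 37 C, dark.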
# gsp agonist = gsp mutant agonism | gsp mutant cells, cAMP HTRF, 30 min; control for the full effect not named in the record | Potency, µM (series often up to 76.9 µM), without a hit: at the top dose activation (cAMP increase), hits mostly activators | 0.13% of 340,000 active | AID 624287; active = well fitted activation curve with a large enough effect; inconclusive = small, poorly fitted or top-dose-only effect, or another doubt; inactive = no such curve, though single readings can be large or run the other way; cell line not stated here;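 further: phosphodiesterase inhibitor Ro 20-1724 added with compounds to block cAMP breakdown; potency means the concentration at half of the fitted maximal effect; nearly all actives have a fitted effect of over 60% in size; about a fifth of the inactives were tested at one dose only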
#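 Cells in DMEM/10% FBS with G418 were pretreated with compounds in DMSO plus […] (300 uM stock) for 30 min at 37C. cAMP was measured by HTRF (cAMP-d2 plus anti-cAMP antibody-K) after 30 min at room temperature.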
# CtBP-E1A inh = inhibitors of CtBP/E1A interaction; AlphaScreen GST-E1A/His-CtBP binding, 1536-well; active compounds read low; control for the full effect not named in the record; activity change, % (concentration not given with the values); 0.49% of 340,000 active; AID 651724; in the data active means activity change below about -65%; inconclusive means about -30% to -65%; inactive means above about -30%; further: on the % scale 0 is the no-effect control and ±100 the full control effect
#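 In 5 uL wells, 23 nL compound meets equimolar GST-E1A and His-CtBP (5X stock 125 nM each) for 2 h, 37 °C. Beads (5X, 50 ug/mL) then 1 h, 37 °C, dark.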
# D2 ag = activates the human D2 dopamine receptor; activation, % (concentration not given with the values); P14416; DiscoveRx PathHunter D2 beta-arrestin, luminescence, 90 min; 100% = 57 uM dopamine signal; 0.084% of 360,000 active; in the data active = activation above about 40%; inconclusive = about 15% to 40%; inactive = below about 15%; further: compound concentration not given in the record; the text of the record calls up to 30% inactive
#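 DiscoveRx PathHunter D2 beta-arrestin cells (2,100/well) attached overnight, then compound-stimulated 90 min at 37 C in HBSS/10 mM HEPES/0.1% Tween-20 buffer; beta-galactosidase complementation read by luminescence after 1 h at ambient temperature. Dopamine 57 uM final (EC100) as control.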
# gsp antag = antagonists of gsp mutant (McCune-Albright syndrome); gsp-mutant cells, cAMP HTRF, 30 min; control for the full effect not named in the record; 0.4% of 340,000 active; Potency, µM (doses to about 76.9 µM), for the others: at the top dose activity change, negative = inhibition, most hits filed as inhibitors; active = falling curve of any shape with a large fitted effect; inconclusive = falling curve, mostly with a smaller effect; inactive = flat or rising curve; cell line not stated here;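 further: intracellular cAMP measured with PDE inhibitor Ro 20-1724 present during compound exposure; potency means the concentration at half of the fitted maximal effect; on the % scale 0 is the no-effect control and ±100 the full control effect; nearly all actives have a fitted effect of over 65% in size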
#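 Cells, 2000/well, grown 16–24 h in DMEM 10% FBS with 0.5 mg/ml G418, then compounds plus […] (300 uM addition stock), 30 min at 37C. cAMP read by HTRF (cAMP-d2 and anti-cAMP antibody-K in lysis buffer) after 30 min RT.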
# An asterisk follows results filed as active; ? = inconclusive; · = no result given; [ ] = another dose, or the depositor's remark.
1	CCC(C)C(NC(=O)C1CCC(C)CC1)C(=O)Nc1cc(OC)ccc1OC (stereo not drawn)
2	CCn1cc(CNC(=O)c2ccc(C)s2)cn1
3	CC1CC(C)CN(S(=O)(=O)c2cc3c(cc2Cl)NC(=O)CO3)C1 (stereo not drawn)
4	CC1CCCN(C(=O)N2c3ccccc3Sc3ccccc32)C1 (stereo not drawn)
5	Cc1ccc(N2C(=O)CC(Sc3nc(-c4ccccc4)c4cc(Cl)ccc4n3)C2=O)c(C)c1 (stereo not drawn)
6	Cc1ccc(S(=O)(=O)N2CCC(C(=O)OCc3c(C)noc3C)CC2)cc1C
compound no.	1	2	3	4	5	6
D2 PAM	-15	-4	5	-7	-20	7
Six1-Eya2 blk	-7	5	2	3	10	2
gsp agonist	-23%	-8%	-58%[inhibitor]	19%	-6%	-7%
CtBP-E1A inh	-7	-9	-1	17	11	7
D2 ag	-2.5	4.7	-0.4	13	-3.9	-1.8
gsp antag	-2%	10%	0%	-3%	-5%	2%

7	CCC1Sc2ccc(S(=O)(=O)N3CCN(c4ccccc4)CC3)cc2NC1=O (stereo not drawn)
8	CC1CC(=O)N(CC(=O)NCc2ccco2)c2ccccc2S1 (stereo not drawn)
9	COc1cccc(C(C#N)N2CCOCC2)c1 (stereo not drawn)
10	Cc1ccc2nc(-c3ccc(N4C(=NC(=O)CCC(=O)O)SC5CS(=O)(=O)CC54)cc3)sc2c1 (stereo not drawn)
11	Cc1ccc(NC(=O)CNC(=O)N2CC(=O)Nc3ccccc32)cc1F
12	CCc1cc(C(=O)NNC(=S)NC2CCCCC2)cs1
compound no.	7	8	9	10	11	12
D2 PAM	0	-2	-16	-4	-17	-23
Six1-Eya2 blk	-9	1	28	-28	-2	-3
gsp agonist	?	2%	-15%	19%	-3%	16%
CtBP-E1A inh	-21	2	0	3	-24	6
D2 ag	0.0	1.3	-3.9	0.2	1.7	-5.4
gsp antag	-20%	13%	36%[activator]	3%	10%	8%

13	O=C(CCC1CCCC1)N=C1SC2CS(=O)(=O)CC2N1Cc1ccccc1 (stereo not drawn)
14	CC(C)C(NS(=O)(=O)c1cccc2nsnc12)C(=O)N1CCc2ccccc2C1 (stereo not drawn)
15	N#CC1(NC(=O)COC(=O)C2CCN(S(=O)(=O)c3ccc4c(c3)OCCO4)CC2)CCCCC1
16	CN1CCN(CC(O)COc2ccc(Cl)cc2)CC1 (stereo not drawn)
17	COCCCNC(=O)CC(C)c1ccccc1 (stereo not drawn)
18	O=C(CSCCO)Nc1cc(C(F)(F)F)ccc1Cl
compound no.	13	14	15	16	17	18
D2 PAM	-3	-5	-2	6	-5	-3
Six1-Eya2 blk	-3	-1	5	5	5	2
gsp agonist	-38%[inhibitor]	3%	18%	-36%	-15%	20%
CtBP-E1A inh	-1	-3	-7	1	19	4
D2 ag	-3.1	-3.0	0.6	-2.6	-3.4	0.1
gsp antag	17%	-23%	1%	19%	14%	0%

# Given with two lines to a compound: 10 of the compounds above.
# Order of values – D2 PAM, Six1-Eya2 blk, gsp agonist, CtBP-E1A inh, D2 ag, gsp antag
[9] COc1cccc(C(C#N)N2CCOCC2)c1 (stereo not drawn)
    -16, 28, -15%, 0, -3.9, 36%[activator]
[10] Cc1ccc2nc(-c3ccc(N4C(=NC(=O)CCC(=O)O)SC5CS(=O)(=O)CC54)cc3)sc2c1 (stereo not drawn)
    -4, -28, 19%, 3, 0.2, 3%
[11] Cc1ccc(NC(=O)CNC(=O)N2CC(=O)Nc3ccccc32)cc1F
    -17, -2, -3%, -24, 1.7, 10%
[12] CCc1cc(C(=O)NNC(=S)NC2CCCCC2)cs1
    -23, -3, 16%, 6, -5.4, 8%
[13] O=C(CCC1CCCC1)N=C1SC2CS(=O)(=O)CC2N1Cc1ccccc1 (stereo not drawn)
    -3, -3, -38%[inhibitor], -1, -3.1, 17%
[14] CC(C)C(NS(=O)(=O)c1cccc2nsnc12)C(=O)N1CCc2ccccc2C1 (stereo not drawn)
    -5, -1, 3%, -3, -3.0, -23%
[15] N#CC1(NC(=O)COC(=O)C2CCN(S(=O)(=O)c3ccc4c(c3)OCCO4)CC2)CCCCC1
    -2, 5, 18%, -7, 0.6, 1%
[16] CN1CCN(CC(O)COc2ccc(Cl)cc2)CC1 (stereo not drawn)
    6, 5, -36%, 1, -2.6, 19%
[17] COCCCNC(=O)CC(C)c1ccccc1 (stereo not drawn)
    -5, 5, -15%, 19, -3.4, 14%
[18] O=C(CSCCO)Nc1cc(C(F)(F)F)ccc1Cl
    -3, 2, 20%, 4, 0.1, 0%

# (list continues)
19	CC1=C(C(=O)N2CCOCC2)CC(CC(=O)NCCc2ccccn2)C(=O)N1Cc1ccc(F)cc1 (stereo not drawn)
20	COc1ccc(NS(=O)(=O)c2ccc(F)c(Cl)c2)cn1
21	Cc1cccc(NC(=O)C2CCCN2C(=O)OCC(C)C)c1C (stereo not drawn)
22	O=C(OCC(=O)N1CCCC1)c1ccc(Cl)c([N+](=O)[O-])c1
23	Cc1ccnc(NC(=O)C2CCN(S(=O)(=O)c3ccc(Cl)c(C(F)(F)F)c3)CC2)c1
24	COc1ccc(N(C(C)C(=O)NCCSCc2cccc(Cl)c2)S(C)(=O)=O)cc1 (stereo not drawn)
compound no.	19	20	21	22	23	24
D2 PAM	8	0	-2	0	0	-28
Six1-Eya2 blk	7	7	9	7	6	-6
gsp agonist	-13%	-2%[15.4 µM]	-35%[inhibitor]	22%	2%[15.4 µM]	-21%
CtBP-E1A inh	5	0	-1	2	-24	·
D2 ag	1.6	-4.5	-1.0	0.0	-0.5	-3.6
gsp antag	·	2%	12%	-1%	-13%	-18%

25	CCOC(=O)C1(C)CCN1C(=O)c1cc(OC)c(OC)c(OC)c1 (stereo not drawn)
26	COc1ccc(CN2CCCCC2C)cc1C (stereo not drawn)
27	O=C(N/C(=C/c1ccccc1Cl)C(=O)N1CCOCC1)c1ccccc1
28	CC(C)C1C(=O)N(Cc2cn(CC3CCCCC3)nn2)CCS(=O)(=O)N1Cc1ccc(-c2ccc(Cl)nc2)cc1 (stereo not drawn)
29	O=C(Nc1ccc(CN2CCS(=O)(=O)CC2)cc1)c1ccc(F)cc1
30	CC(C)Cn1c(=O)c(C(=O)NCc2ccccn2)c(O)c2ccccc21
compound no.	25	26	27	28	29	30
D2 PAM	1	-4	-3	·	0	-15
Six1-Eya2 blk	16	2	-3	-3	0	17
gsp agonist	·	15%	-33%[inhibitor]	?	43%	-2%
CtBP-E1A inh	28	0	10	-15	·	-7
D2 ag	-6.9	-2.0	-3.4	-0.3	-1.6	-3.9
gsp antag	·	-10%	8%	·	12%	1%

31	CCOC(=O)c1c(/N=C/c2ccc(OC)cc2O)sc2c1CCN(C)C2
32	CSc1ccc(CN2CCC(n3nccc3NC(=O)C3CCOC3)CC2)cc1 (stereo not drawn)
33	O=C(NCc1cc(F)ccc1F)C1CCC(=O)N(C2CCCCCC2)C1 (stereo not drawn)
34	CC(C)(C)n1c(=O)[nH]c2c(c1=O)CCC2
35	COc1ccc(CC(=O)Nc2ccc(-c3noc(-c4ccc(Cl)cc4)n3)cc2)cc1
36	Nc1ccc(C(=O)OCCCc2nc3cc4ccccc4cc3[nH]2)cc1
compound no.	31	32	33	34	35	36
D2 PAM	-17	-9	0	-11	-8	-15
Six1-Eya2 blk	-3	2	-2	2	0	-5
gsp agonist	8%	14%	?	-9%	?	7%
CtBP-E1A inh	-5	4	0	9	5	·
D2 ag	0.4	-2.2	1.0	-1.5	1.4	-2.9
gsp antag	-13%	8%	13%	-3%	0%	0%
